Assay outcomes: PubChem BioAssay, several laboratories
CSC inhib: cancer stem cell viability inhibitors, primary screen, luminescence; cancer stem cell-like cells viability; inhibition, % at 7.5 µM; 1.1% of 300,000 active; AID 2717, 2010;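 active = mean at 75% or more and at least half the replicates too; tested in HMLE shEcad cells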;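 also: 0% = median of negative and 100% = median of positive control wells; the first replicate is given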
PABP polyA inh: PABP poly(A) RNA binding inhibitors, primary screen, biochemical, fluorescence polarization, uHTS; Polyadenylate-binding protein 1 (Homo sapiens), P11940; inhibition, % at 35 µM; 1% of 290,000 active;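 active = 50% or more with normal probe brightness, or confirmed in later tests; about a fifth of its hits are not listed in these tables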;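 also: calls also rest on retests at 20 µM and on dose response follow-up; controls were probe without protein and protein plus probe with vehicle; some compounds called inactive have numbers as strong as hits; many hits fall short of the cut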
Target sequence (P11940 whole entry, looked up): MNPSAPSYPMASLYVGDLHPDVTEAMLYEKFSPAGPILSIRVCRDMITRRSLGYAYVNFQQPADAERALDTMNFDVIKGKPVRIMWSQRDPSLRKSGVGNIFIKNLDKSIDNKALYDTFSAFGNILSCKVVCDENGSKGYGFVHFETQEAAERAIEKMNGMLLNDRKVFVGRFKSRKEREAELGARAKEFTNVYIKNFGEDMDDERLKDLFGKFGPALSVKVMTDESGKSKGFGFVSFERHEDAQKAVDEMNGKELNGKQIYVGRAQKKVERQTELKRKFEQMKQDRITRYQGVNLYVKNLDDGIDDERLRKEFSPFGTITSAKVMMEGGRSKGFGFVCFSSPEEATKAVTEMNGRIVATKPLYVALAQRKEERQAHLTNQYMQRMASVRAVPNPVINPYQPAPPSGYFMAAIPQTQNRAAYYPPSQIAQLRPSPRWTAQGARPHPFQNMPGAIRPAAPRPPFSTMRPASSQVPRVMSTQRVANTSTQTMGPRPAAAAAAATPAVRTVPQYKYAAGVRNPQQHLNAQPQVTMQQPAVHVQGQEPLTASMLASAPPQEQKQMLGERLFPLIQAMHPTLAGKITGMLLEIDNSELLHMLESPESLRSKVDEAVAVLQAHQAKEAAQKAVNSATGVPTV
Rce1 inh: yeast Rce1p protease inhibitors, primary screen, biochemical, fluorescence, cell-free homogeneous; 0.27% of 290,000 active; calls only; CAAX prenyl protease 2 (Saccharomyces cerevisiae (strain ATCC 204508 / S288c)), Q03530; yeast membranes, quenched prenylated peptide cleavage fluorescence; AID 2563, 2010;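 active = fall in fluorescence gain of 50% or more versus controls, with final raw signal at or below 3038400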;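 also: plate controls were neutral control wells for no effect and wells lacking membranes for full effect; tested at 10 µM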
Target sequence (Q03530 whole entry, looked up): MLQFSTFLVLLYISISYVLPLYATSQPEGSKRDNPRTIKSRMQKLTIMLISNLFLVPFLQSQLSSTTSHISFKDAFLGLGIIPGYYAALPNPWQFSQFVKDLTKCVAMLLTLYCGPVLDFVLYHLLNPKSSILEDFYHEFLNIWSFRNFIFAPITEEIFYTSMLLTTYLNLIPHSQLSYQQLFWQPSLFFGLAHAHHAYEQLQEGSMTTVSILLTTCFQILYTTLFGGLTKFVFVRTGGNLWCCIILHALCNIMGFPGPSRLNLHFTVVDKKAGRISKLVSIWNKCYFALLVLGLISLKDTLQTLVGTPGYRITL
MT1-MMP act inh: blockers of MT1-MMP proenzyme processing, primary screen, HT1080 RFP-PRO-GFP cells, GFP/RFP fluorescence; AID 651647, 2012; GFP/RFP ratio change, % at 20 µM; GFP/RFP ratio fluorescence, overnight; percent of plate control window, DMSO zero; 0.061% of 360,000 active;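 active = GFP/RFP ratio change of at least 30% with cell ATP level not reduced by more than half and red fluorescence within 50% of control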; also: strong numbers were not always called active
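Test system: HT1080 RFP-PRO-GFP cells; Benchmarks: DMSO and RFP-L50D-GFP cell wells; Timing: cells overnight before dosing, compound overnight, 37 °C, 5% CO2; Compound: one 20 µM compound dose with 1% DMSO; Read-out: GFP/RFP fluorescence ratio.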
Yeast UUG start: modulators of yeast start codon fidelity, primary screen, whole organism, S. cerevisiae, single point, plate reader | activity score, % at 18.7 µM | S. cerevisiae UUG-firefly luciferase reporter, luminescence/redox ratio | 0.13% of 350,000 active;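 active = replicate mean at a twofold rise or more, about +100% in these data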;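 also: firefly luciferase made from a UUG start codon reports start codon fidelity; reporter light over untreated wells divided by growth signal over untreated wells; some hits fall short of that in this replicate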
HIV Env fusion: inhibitors of HIV-1 Env-driven cell-cell fusion, primary screen, HeLa-JRFL effector, CEM21 target cells, luciferase; inhibition, % at 12.3 µM; 1.1% of 360,000 active;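 active = mean replicate inhibition score of at least 50 and every replicate individually at or above 50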;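 also: 0% = plate neutral controls and 100% = maraviroc near 300 nM; one replicate is shown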
eIF4H FP inh: human eIF4H binding inhibitors, primary screen, translation initiation inhibitor project, biochemical, uHTS, fluorescence polarization; inhibition, % at 35 µM; Eukaryotic translation initiation factor 4H (Homo sapiens), Q15056; 0.94% of 290,000 active; eIF4H fluorescence polarization binding assay;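 active = 50% or more with normal probe brightness, or confirmed in later tests; about a fifth of its hits are not listed in these tables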;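 also: calls also rest on retests at 20 µM and on dose response follow-up; 0% = protein and probe with vehicle and 100% = probe without protein; strong numbers were not always called active; many hits fall short of the cut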
eIF4H FP inh retest: further read-out of eIF4H FP inh, marked with its call; inhibition, %; compound at 20 µM; confirmation average;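 mean of two retest wells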
PABP polyA inh retest: second read-out of PABP polyA inh, no call of its own (marks repeat the call); inhibition, %; compound at 20 µM; confirmation repeats;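 mean of two retest wells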
MT1-MMP act inh RFP: recorded beside MT1-MMP act inh, whose call it bears; RFP signal change, %; measured here: RFP expression control read;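 0 = vehicle wells; hits needed this value within 50% of zero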
* marks the source's active call; other numbers are inactive results; i = inactive; . = not tested or not shown; + = active, no number.

SMILES | CSC inhib | PABP polyA inh | Rce1 inh | MT1-MMP act inh | MT1-MMP act inh RFP | Yeast UUG start | HIV Env fusion | eIF4H FP inh | others
CCOC(=O)N1CCN(Cc2nc3c(c(=O)n(C)c(=O)n3C)n2CCC(C)C)CC1 | -7 | 3 | i | 3 | 2 | 5 | -1 | -6
COc1cccc(C2CC(C(F)(F)F)n3ncc(C(=O)NCc4ccco4)c3N2)c1 (centres undefined) | -7 | -15 | i | 5 | 2 | . | . | -6
CCOc1ccccc1N1CCN(C(=O)c2cc3ccccc3cc2OC)CC1 | . | . | . | -2 | -11 | 5 | 2 | .
CC(=O)NC(Cc1ccc(F)c(F)c1)C(=O)NC1CCN(c2c(Cc3ccccc3)c(C)nc3ncnn23)CC1 (centres undefined) | -11 | -2 | i | -3 | -7 | -13 | 19 | -6
O=C(Nc1cccc(Oc2ccccc2)c1)C1Cc2c(-c3ccccc3)ccnc2O1 (centres undefined) | . | . | . | 2 | -3 | -10 | 5 | .
C[C@H](CO)N1C[C@H](C)[C@@H](CN(C)Cc2ccc(C(F)(F)F)cc2)OCc2cnnn2CCCC1=O | . | . | . | -1 | 1 | 9 | 17 | .
CCCCC(=O)Nc1cc([N+](=O)[O-])ccc1F | -14 | -2 | i | -2 | -1 | . | -5 | -5
O=C(CCS(=O)(=O)c1ccc(Br)s1)NCc1ccccc1 | -9 | -4 | i | -1 | 8 | -5 | -6 | 19
O=C(C[C@H]1C[C@H](C(=O)N2CCOCC2)[C@@]2(CCC3CCCC3)c3[nH]c4ccc(Cl)cc4c3CCN2C1=O)NCCN1CCOCC1 | . | . | . | 2 | -2 | -2 | -94 | .
COc1ccc(OCCCC(=O)N2CCN(S(=O)(=O)c3cccc(F)c3)CC2)cc1 | -11 | . | i | -3 | -5 | 5 | -5 | .
Cc1cc(C(F)F)n2nc(C(=O)Nc3sc4c(c3C(N)=O)CCC4)nc2n1 | 0 | 1 | i | 9 | 6 | -3 | -42 | 32
O=C(COc1ccc(Cl)cc1)Nc1ncc([N+](=O)[O-])s1 | . | 0 | i | -7 | -31 | . | -27 | -9
NC(=O)c1ccc(OCC(F)(F)F)nc1 | -8 | 5 | i | 0 | 3 | -12 | -5 | -5
NC(=O)c1cccc(C(N)=O)n1 | 4 | 7 | i | -3 | -2 | -14 | 1 | 10
Cc1cnc(C(=O)Nc2nccs2)cn1 | -4 | 10 | i | 3 | 6 | -13 | . | 9
CC(C)(C)C1CCc2c(sc(NC(=O)CSc3ncn[nH]3)c2C#N)C1 (centres undefined) | 93* | -6 | i | -6 | -13 | -19 | -50 | 8
Oc1c(C(c2ccccn2)N2CCOCC2)ccc2cccnc12 (centres undefined) | . | -7 | . | 1 | -3 | . | . | 9
O=C(C1=C(O)C(=O)N(CCOCCO)C1c1ccccn1)c1cccs1 (centres undefined) | -8 | 12 | i | 2 | 4 | -11 | -2 | -8
C=CCN1CCN(C(c2ccc(OC)c(OC)c2)c2nnnn2C(C)(C)C)CC1 (centres undefined) | . | 24 | i | 8 | -3 | 11 | . | -15
CCCCCOc1ccc(C2C(C(=O)c3ccc(C)o3)=C(O)C(=O)N2c2cc(C)on2)cc1 (centres undefined) | -2 | -6 | i | -3 | -4 | -11 | 5 | 10
COc1ccc(NC(=O)c2cccs2)cc1O | -6 | 1 | i | 4 | 1 | -9 | . | -12
Cc1ccc(N2C(=O)CSC23C(=O)Nc2ccccc23)cc1 (centres undefined) | 0 | 0 | i | 1 | 2 | -5 | . | -1
CC(C(N)=O)N1C(=O)C2C3C=CC(C3)C2C1=O (centres undefined) | -5 | -2 | i | 1 | 1 | -13 | -22 | -2
NC(=O)c1ncn([C@@H]2O[C@H](CNCc3ccccc3OCc3ccc(Cl)cc3Cl)[C@@H](O)[C@H]2O)n1 | . | . | . | 2 | 0 | 7 | -13 | .
CCCNC(=O)C(=O)NCCC1=CCCCC1 | -9 | -2 | i | . | . | -5 | . | 1
c1cc(-c2sc(-c3ccncc3)c(-c3ccncc3)c2-c2ccncc2)ccn1 | -4 | 34 | i | -17 | -9 | -30 | 42 | 87 | eIF4H FP inh retest=8;PABP polyA inh retest=26
CC(NC(=O)COC(=O)CN1C(=O)C2CCCCC2C1=O)c1ccccc1 (centres undefined) | -15 | . | . | 1 | 6 | -13 | 21 | .
CC(C)CNS(=O)(=O)c1ccc(CCC(=O)NCc2ccc(Cl)cc2)cc1 | -13 | -15 | i | 2 | -7 | -5 | 35 | -12
CCOC(=O)c1sc2nc(C)cc(C)c2c1NC(=O)c1ccco1 | 0 | -4 | i | -2 | -3 | 7 | . | 5
Cc1cc(S(=O)(=O)NCCN2CCOCC2)ccc1Cl | 2 | -10 | i | 1 | 3 | -15 | 1 | 2
O=C(/C=C/Nc1ccc(F)c(F)c1)c1cccs1 | -6 | -3 | i | -5 | -4 | -14 | . | -2
CCc1nc2c(OCc3ccc(C(F)(F)F)cc3)cccn2c1N(C)C(=O)c1ccc(OC)cc1 | . | . | . | -2 | -17 | -4 | 21 | .
O=C(NCc1cc(C(F)(F)F)cc(C(F)(F)F)c1)C1CC(c2cccc(F)c2)=NO1 (centres undefined) | . | -4 | i | 5 | 2 | -17 | 20 | -10
CCc1ccc(C(=O)CSc2n[nH]c(C)n2)cc1 | -8 | -1 | i | 10 | 2 | -21 | -65 | 4
Cc1cccc(NC(=O)COc2ccc3oc4c(c3c2)CCCC4)n1 | 14 | -9 | i | 11 | 0 | -10 | -8 | -5
CCOC(=O)CSc1n[nH]c(NC(=O)c2cccc(C)c2)n1 | 5 | 13 | . | -2 | 0 | -7 | -30 | -5
CN1CCN(C(=O)C(N)Cc2ccccc2)CC1 (centres undefined) | -15 | -10 | i | 1 | 2 | . | 13 | 0
CCOC(=O)c1c(NC(=O)CSc2nnc(-c3ccccc3C)n2C)sc(C(C)=O)c1C | -3 | 2 | i | -13 | -9 | -17 | -89 | 14
Cc1ccc(/C=C2\SC(=S)N(CCCC(=O)NNC(=O)c3ccccc3O)C2=O)cc1 | -6 | 3 | i | 5 | 6 | -6 | 96* | 16
NC(=O)C(=O)N/N=C/c1c2ccccc2cc2ccccc12 | -3 | -4 | i | 2 | 4 | -9 | 11 | 34

Next section; it opens with the 2 that closed the last part.
SMILES | CSC inhib | PABP polyA inh | Rce1 inh | MT1-MMP act inh | MT1-MMP act inh RFP | Yeast UUG start | HIV Env fusion | eIF4H FP inh | others
Cc1ccc(/C=C2\SC(=S)N(CCCC(=O)NNC(=O)c3ccccc3O)C2=O)cc1 | -6 | 3 | i | 5 | 6 | -6 | 96* | 16
NC(=O)C(=O)N/N=C/c1c2ccccc2cc2ccccc12 | -3 | -4 | i | 2 | 4 | -9 | 11 | 34
CCNC(=O)N1CCN(S(=O)(=O)c2ccc3c(c2)OCCCO3)CC1 | -4 | . | . | 6 | 3 | -10 | . | .
O=C(c1ccccc1)c1ccc(C(=O)N2CCCC(C(F)(F)F)C2)cc1 (centres undefined) | -7 | . | i | 0 | -2 | . | -8 | .
Cc1csc2ncnc(N3CCN(C(=S)Nc4ccc(F)cc4F)CC3)c12 | 7 | 0 | i | 8 | -6 | -14 | 27 | -8
CCCc1nc2ccccc2c(=O)n1/N=C/c1ccccc1O | 17 | -7 | i | 2 | 4 | -15 | . | 8
COC(=O)c1ccc(NS(=O)(=O)c2c(C)[nH]c(C)c2C(=O)N2CCCC2)cc1 | -4 | 2 | i | 5 | 5 | -11 | -6 | -6
COc1ccc(CN2CCN(C(=O)CC(C)C)CC2)cc1 | -16 | 10 | i | -1 | 0 | -2 | 13 | 13
Cn1c(N2CCCCC2)nc2c1c(=O)[nH]c(=O)n2C | -14 | 2 | . | 5 | 3 | -13 | -114 | 1
COc1ccc2c(c1)/C(=N/N1C(=O)c3ccccc3C1=O)C(=O)N2 | -7 | 15 | i | . | . | . | . | -4
Cc1ccc(C(=O)NC(=S)Nc2cccnc2Cl)cc1 | 5 | 11 | i | 2 | -7 | -28 | -82 | -8
C=CCSc1nnc(CSc2nc3sc4c(c3c(=O)[nH]2)CCCC4)n1-c1ccccc1 | . | 0 | i | 5 | -7 | -13 | . | 5
CCOc1cccc(-c2c(C(=O)N/N=C/c3cccs3)nnn2-c2nonc2N)c1 | 18 | 10 | + | -8 | -4 | -16 | 2 | 15
COc1ccc(C(=O)Nc2n[nH]c(-c3ccncc3)n2)cc1 | -8 | -8 | i | -4 | -4 | -20 | -27 | 8
CCCCCCC(=O)NN1CCN(C)CC1 | 5 | 0 | i | -1 | 0 | -15 | . | -14

An excerpt from above in order of molecular weight, low to high.
SMILES | CSC inhib | PABP polyA inh | Rce1 inh | MT1-MMP act inh | MT1-MMP act inh RFP | Yeast UUG start | HIV Env fusion | eIF4H FP inh | others
CCCCCCC(=O)NN1CCN(C)CC1 | 5 | 0 | i | -1 | 0 | -15 | . | -14
Cn1c(N2CCCCC2)nc2c1c(=O)[nH]c(=O)n2C | -14 | 2 | . | 5 | 3 | -13 | -114 | 1
COc1ccc(CN2CCN(C(=O)CC(C)C)CC2)cc1 | -16 | 10 | i | -1 | 0 | -2 | 13 | 13
NC(=O)C(=O)N/N=C/c1c2ccccc2cc2ccccc12 | -3 | -4 | i | 2 | 4 | -9 | 11 | 34
COc1ccc(C(=O)Nc2n[nH]c(-c3ccncc3)n2)cc1 | -8 | -8 | i | -4 | -4 | -20 | -27 | 8
Cc1ccc(C(=O)NC(=S)Nc2cccnc2Cl)cc1 | 5 | 11 | i | 2 | -7 | -28 | -82 | -8
CCCc1nc2ccccc2c(=O)n1/N=C/c1ccccc1O | 17 | -7 | i | 2 | 4 | -15 | . | 8
COc1ccc2c(c1)/C(=N/N1C(=O)c3ccccc3C1=O)C(=O)N2 | -7 | 15 | i | . | . | . | . | -4
O=C(c1ccccc1)c1ccc(C(=O)N2CCCC(C(F)(F)F)C2)cc1 (centres undefined) | -7 | . | i | 0 | -2 | . | -8 | .
CCNC(=O)N1CCN(S(=O)(=O)c2ccc3c(c2)OCCCO3)CC1 | -4 | . | . | 6 | 3 | -10 | . | .
Cc1csc2ncnc(N3CCN(C(=S)Nc4ccc(F)cc4F)CC3)c12 | 7 | 0 | i | 8 | -6 | -14 | 27 | -8
CCOc1cccc(-c2c(C(=O)N/N=C/c3cccs3)nnn2-c2nonc2N)c1 | 18 | 10 | + | -8 | -4 | -16 | 2 | 15
CCOC(=O)c1c(NC(=O)CSc2nnc(-c3ccccc3C)n2C)sc(C(C)=O)c1C | -3 | 2 | i | -13 | -9 | -17 | -89 | 14
